Source: PubChem
Beta apoptosis: beta cell apoptosis inhibition. INS-1E cytokine-induced death, ATP luminescence, 48 h; percent of positive-control rescue, neutral wells zero. AID 435005. protection from apoptosis, % (test concentration not listed). 0.8% of 300,000 active;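 active = all replicates at 75% or more, or half of them and the mean; inconclusive = half reach 75% but not the mean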;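 note: 0% = cytokine-treated negative control wells and 100% = positive control rescue; higher means more ATP so stronger rescue from cytokine killing; wells of about 40 µL received 100 nL stock; the first replicate is given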
UCH37 inh: inhibitors of human deubiquitinating enzyme UCH37; AID 588478; purified proteasome/UCH37, Ub-AMC cleavage fluorescence; 0.33% of 330,000 active; Q9Y5K5; inhibition, % (test concentration not listed);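 active = mean of two replicates above 20%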;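 note: 0% = compound-free wells with enzyme and 100% = wells lacking proteasome; stock transfer was 100 nL into about 20 µL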
Target sequence (Q9Y5K5 whole entry, looked up): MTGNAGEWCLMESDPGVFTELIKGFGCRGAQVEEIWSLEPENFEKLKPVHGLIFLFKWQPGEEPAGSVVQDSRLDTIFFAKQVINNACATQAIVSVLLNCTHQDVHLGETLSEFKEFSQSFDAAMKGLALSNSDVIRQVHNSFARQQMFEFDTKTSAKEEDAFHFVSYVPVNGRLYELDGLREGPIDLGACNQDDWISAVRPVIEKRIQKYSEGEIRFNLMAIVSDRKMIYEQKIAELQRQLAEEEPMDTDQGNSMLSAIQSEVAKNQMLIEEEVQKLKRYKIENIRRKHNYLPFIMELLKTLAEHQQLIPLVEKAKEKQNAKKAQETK
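Signal – fluorescence, ex 355 nm, em 460 nm · System – Proteasome-bound UCH37 · Input – 0.15 nM proteasome as dispensed · Timing – 30 min preincubation with enzyme, 25 min cleavage at room temperature · Read-out basis – percent inhibition of cleavage signal versus uninhibited and no-proteasome wells · Medium – Tris-HCl pH 7.4 with ATP-MgCl2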
LANA-H2A inh: blocks KSHV LANA binding to histone H2A/H2B; Q9QR71; cell-free LANA-H2A/H2B peptide, fluorescence polarization; inhibition, % (concentration not given with the values); 0.6% of 320,000 active; in the data active = inhibition mostly above about 10%, no sharp cut-off; inactive = mostly below about 6.7%;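 note: stock transfer was 7.5 nL into about 10 µL; 0% = median of vehicle wells and 100% = median of positive control wells; one replicate is shown; the record names a cut of 25% in any replicate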
Bfl-1 A1 inh: inhibitors of the anti-apoptotic protein A1, read as caspase activation; 0.066% of 330,000 active; MEF A1-2A-BIM cells, Caspase-Glo 3/7 luminescence, 3 h; percent of clofoctol response, vehicle zero; caspase activation, % (test concentration not listed);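 active = over half of replicate activation scores above 10%, or exactly half above 10 with the replicate mean above 10; inconclusive = replicate mean below 10 yet half the replicates above 10; inactive = over half of replicates below 10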;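 note: wells of about 30 µL received 50 nL stock; many hits fall short of the cut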
Beta2AR agonist: human beta-2 adrenergic receptor agonism by FAP | P07550 | Am2.2-beta2AR cells, FAP receptor internalization, flow cytometry; reference of the scale not given here | response, % (test concentration not listed) | 0.43% of 340,000 active | AID 504454;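 active = response above a set limit, near 3 SD of response in nonfluorescent compounds, cut at about 42% in these data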;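 note: stock transfer was 100 nL into about 11 µL; a reference agonist was the positive control; negative values mostly stem from fluorescent compounds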
Target sequence (P07550 whole entry, looked up): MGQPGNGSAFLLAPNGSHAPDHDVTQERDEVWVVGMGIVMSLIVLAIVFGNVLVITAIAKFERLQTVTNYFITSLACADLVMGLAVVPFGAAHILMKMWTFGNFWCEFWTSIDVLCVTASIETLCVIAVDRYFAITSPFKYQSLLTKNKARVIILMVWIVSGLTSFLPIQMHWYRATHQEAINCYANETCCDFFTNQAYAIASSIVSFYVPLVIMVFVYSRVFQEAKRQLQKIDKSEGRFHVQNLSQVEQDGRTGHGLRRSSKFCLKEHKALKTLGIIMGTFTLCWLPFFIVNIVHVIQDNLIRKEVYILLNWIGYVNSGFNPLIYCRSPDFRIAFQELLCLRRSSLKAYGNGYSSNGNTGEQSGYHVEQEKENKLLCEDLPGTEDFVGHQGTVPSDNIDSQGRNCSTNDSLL
RanGTP-Imp inh: inhibitors of RanGTP-importin-beta interaction, primary screen, biochemical, FRET, CFP-Ran, YFP-importin-beta, homogeneous | cell-free CFP-Ran/YFP-importin-beta FRET ratio | inhibition, % (test concentration not listed) | 1.1% of 300,000 active | AID 2216;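 active = most replicates above 15%; inconclusive = exactly half above 15%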;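 note: 0% = DMSO wells and 100% = Ran loaded with GDP instead of GTP; wells of about 40 µL received 100 nL stock; the first replicate is given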
Calb FLC: affects C. albicans growth with fluconazole; C. albicans CaCi-2 (fluconazole-resistant clinical isolate) + fluconazole, Alamar Blue growth, 48 h; growth inhibition, % (concentration not given with the values); 0.57% of 300,000 active; AID 1979;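 active = most replicates above 75%; inconclusive = exactly half above 75%; inactive = most below 75%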;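 note: all wells also contain fluconazole at 8 µg/ml as a sub-toxic cotreatment; 0% = median of DMSO wells and 100% = median of geldanamycin control wells; wells of about 8 µL received 7.5 nL stock; the first replicate is given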
T cruzi inh: T. cruzi replication inhibition; inhibition, % (test concentration not listed); AID 1885; T. cruzi beta-gal in NIH3T3, luminescence, 90 h; 1.4% of 300,000 active;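 active = mean inhibition across valid replicates above about 55%, limit read from the data; inconclusive = mean below that limit but half or more replicates reach it; inactive = mean below it, under half of replicates reach it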;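 note: signal also drops with host cell toxicity which is not excluded here; 0% = plate median of DMSO wells and 100% = zero luminescence signal; higher percent means less beta-gal luminescence so fewer parasites; stock transfer was 50 nL into about 50 µL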
The depositor's hits bear a star; ? = inconclusive; . = no result given.

entry	smiles	Beta apoptosis	UCH37 inh	LANA-H2A inh	Bfl-1 A1 inh	Beta2AR agonist	RanGTP-Imp inh	Calb FLC	T cruzi inh
1	COc1ccc(S(=O)(=O)NC2(C(F)(F)F)N=C3SCCN3C2=O)cc1 (stereo not given)	.	0.8	-1.2	0.9	9	4.8	5	4
2	Cc1ccc(C(=O)NCCCNC(=O)c2ccccc2F)cn1	1	-0.1	5.0	1.1	-3	-1.5	3	-23
3	COc1ccc(CN2CCN(CC=C(C)C)C(CCO)C2)cc1Cn1cccn1 (stereo not given)	2	-1.7	2.9	-0.2	-2	2.6	?	13
4	Cc1cnc(NC(=O)CN2CCN(c3ccccc3F)CC2)s1	-2	4.2	-0.1	0.9	7	-1.0	-3	-12
5	OCCN1CCN(Cc2cc(Br)cc(Br)c2O)CC1	-6	5.0	-4.3	-0.7	-1	4.4	22	13
6	CCN(CC(=O)NCc1cccs1)C(=O)c1cccc(S(=O)(=O)N(C)C)c1	-1	3.1	3.4	0.2	-1	.	.	.
7	Cc1[nH]c(=O)[nH]c(=O)c1/C=N/NC(=O)[C@H](C)N	-3	.	-2.0	1.6	-4	1.1	-5	-1
8	COc1ccc(OC)c(C(=O)CSc2nnc(-c3cccs3)n2C)c1	-4	1.1	-0.7	-0.5	-2	0.6	-2	-1
9	CCOc1ccc(-c2cn(-c3cccc(SC)c3)c(=O)[nH]2)cc1	-1	2.1	-2.0	-0.1	-1	?	-3	-2
10	CCOC(=O)N1CCC(NC(=O)CN2C(=O)COc3ccc(C(C)(C)C)cc32)CC1	6	1.1	0.4	0.9	-6	-2.3	-3	3
11	Cc1ccc(CSCCNS(=O)(=O)c2ccc(C)cc2)cc1	-8	4.7	-4.5	-1.0	1	2.0	2	3
12	COc1ccc(N(C(=O)C(C)C)S(=O)(=O)c2cccc([N+](=O)[O-])c2)cc1	2	0.4	-1.4	0.5	-15	-4.4	32	1
13	C[C@H](NC(=O)OC(C)(C)C)C(=O)N/N=C/c1ccc2nccnc2c1	-5	.	1.6	2.0	-4	0.9	-9	9
14	CCOC(=O)C1=C(C)NC(=O)NC1c1c(O)ccc2ccccc12 (stereo not given)	0	5.5	-0.5	-0.2	4	2.5	1	-16
15	CCCC1CCC(c2ccc(/C(N)=N/O)cc2)CC1 (stereo not given)	1	4.3	2.5	-0.3	0	-2.3	1	4
16	O=C(COC(=O)Cc1ccccc1[N+](=O)[O-])NNC(=O)c1ccc([N+](=O)[O-])cc1	-3	1.4	-14	0.2	-8	.	.	.
17	Cc1ccc(C(=O)N/N=C/c2c(O)ccc3ccccc23)cn1	.	.	-1.1	0.3	38	8.4	89*	67*
18	CCC(C)NS(=O)(=O)c1ccc(-c2csnn2)s1 (stereo not given)	-4	-1.4	-2.7	1.9	-6	-0.7	3	-10
19	O=C(COC(=O)C1=COCCO1)Nc1ccc([N+](=O)[O-])cc1C(F)(F)F	-5	0.7	4.4	-1.1	0	.	.	.
20	O=C1C2CC=C(Cl)CC2C(=O)N1CNc1ccccn1 (stereo not given)	-8	2.0	-5.2	0.3	1	-2.7	-4	.
21	COc1ccc(CCC(=O)NCc2cn3ccccc3n2)cc1	-1	2.1	-0.4	-0.5	1	2.2	-1	0
22	CCOc1ncccc1C(=O)N(C)CC1COc2ccccc2O1 (stereo not given)	-6	3.9	-4.4	0.4	2	1.1	3	-8
23	NC(=S)NNC(=O)c1ccccc1	-6	4.7	-3.6	-6.8	3	-1.9	-2	-18
24	CCOc1ccc(OCc2ccc(C(=O)O)o2)cc1	-1	-0.1	3.2	0.5	-8	3.1	-4	5
25	COc1ccc(C(=O)Nc2ccc(N3CCCC3)cc2)cc1	25	-1.2	-3.4	0.5	13	-1.4	3	13
26	CC1CCCCC12NC(=O)N(CC(=O)Nc1ccccc1N1CCOCC1)C2=O (stereo not given)	-8	2.2	-0.3	-0.1	3	-1.2	-15	1
27	O=C(COc1ccccc1)Nc1ccc(S(=O)(=O)Nc2ncccn2)cc1	-2	2.3	2.5	-0.6	-2	0.3	0	-11
28	CCCC(=O)Nc1ccc(-c2csc(N/N=C\c3ccncc3)n2)cc1	4	.	12	-0.6	27	-2.3	-7	13
29	CC(=O)Nc1ccc(C(=O)OCC(=O)Nc2ccc(S(=O)(=O)N3CCOCC3)cc2)cc1	1	4.0	3.4	0.5	0	.	.	.
30	CC(=O)Nc1ccc(NC(=O)COC(=O)c2c3c(nc4ccccc24)CCN(Cc2ccccc2)C3)cc1	0	1.6	6.9	-0.5	4	-1.5	-5	7
31	CC1(C)CC(=O)C2=C(C1)N(CC1CCCO1)C(=O)C2(NC(=O)c1cccnc1)C(F)(F)F (stereo not given)	0	2.6	-9.3	-0.8	8	-0.5	6	-1
32	CCn1c(CNc2ccc(OC)cc2)nnc1SCC(=O)c1ccc(OC)cc1	5	1.0	-2.6	-1.3	6	2.2	-13	-3
33	Cc1nn(C)cc1CN(C)C(=O)CC12CC3CC(CC(C3)C1)C2	-4	4.7	0.9	0.1	-6	-3.9	-10	4
34	O=C(COc1ccccc1Cl)N1CCCC1	-4	1.3	2.0	0.0	2	-5.2	2	13
35	Cc1ccccc1-n1c(-c2cccnc2)n[nH]c1=S	-4	3.4	3.6	0.3	4	4.3	-5	-13
36	CCOC(=O)Cn1c2ccc(C)cc2c2nc(C)sc21	-3	4.1	-8.4	0.3	6	1.1	-7	-12
37	CCCCCCc1ccc(OC(=O)c2ccncc2)cc1	0	2.5	-3.5	0.3	22	-4.9	11	9
38	CCC1(CC)NC(=O)N(CC(=O)Nc2cccc3ccccc23)C1=O	-6	0.7	-4.2	-0.1	-2	.	.	.
39	O=C(Nc1cccc(Cl)c1)Nc1ccc2c(c1)OCO2	17	1.3	2.0	-11	10	0.9	-17	12
40	COc1ccc(S(=O)(=O)CCC(=O)Nc2c(C)cccc2C)cc1	-5	4.0	3.5	0.7	2	-3.4	14	-4

Single records, as listed above. Values in the order: Beta apoptosis	UCH37 inh	LANA-H2A inh	Bfl-1 A1 inh	Beta2AR agonist	RanGTP-Imp inh	Calb FLC	T cruzi inh
Results for `COc1ccc(S(=O)(=O)NC2(C(F)(F)F)N=C3SCCN3C2=O)cc1` (stereo not given) = .	0.8	-1.2	0.9	9	4.8	5	4
Results for `CCC(C)NS(=O)(=O)c1ccc(-c2csnn2)s1` (stereo not given) = -4	-1.4	-2.7	1.9	-6	-0.7	3	-10

Quoted from above, nos. 1 to 4
entry	smiles	Beta apoptosis	UCH37 inh	LANA-H2A inh	Bfl-1 A1 inh	Beta2AR agonist	RanGTP-Imp inh	Calb FLC	T cruzi inh
1	COc1ccc(S(=O)(=O)NC2(C(F)(F)F)N=C3SCCN3C2=O)cc1 (stereo not given)	.	0.8	-1.2	0.9	9	4.8	5	4
2	Cc1ccc(C(=O)NCCCNC(=O)c2ccccc2F)cn1	1	-0.1	5.0	1.1	-3	-1.5	3	-23
3	COc1ccc(CN2CCN(CC=C(C)C)C(CCO)C2)cc1Cn1cccn1 (stereo not given)	2	-1.7	2.9	-0.2	-2	2.6	?	13
4	Cc1cnc(NC(=O)CN2CCN(c3ccccc3F)CC2)s1	-2	4.2	-0.1	0.9	7	-1.0	-3	-12

Next part:
entry	smiles	Beta apoptosis	UCH37 inh	LANA-H2A inh	Bfl-1 A1 inh	Beta2AR agonist	RanGTP-Imp inh	Calb FLC	T cruzi inh
41	CC(C)n1ncc2c(C(=O)N3CCN(Cc4ccc(Cl)s4)CC3)cc(C3CC3)nc21	5	-0.3	3.9	0.0	-3	.	.	.
42	N#C/C(=C\c1cccnc1)C(=O)Nc1ccc(SC(F)F)cc1	-8	3.5	-1.5	0.1	23	-4.1	4	4
43	CN1CCN(S(=O)(=O)c2ccc3c(c2)OCCO3)CC1	-1	6.3	2.7	0.4	-4	-0.8	-8	0
44	Cn1c(=O)c2c(nc(N3CCOCC3)n2CCCNC2=NCCCCC2)n(C)c1=O	0	2.1	-0.6	0.1	-3	-4.0	-7	-15
45	O=C(c1ccco1)N1CCN(C(=O)C2CC(=O)N(c3ccccc3)C2)CC1 (stereo not given)	-1	0.6	-4.8	-0.4	-9	0.9	-3	-6
46	COc1cc(/C=C/C(=O)OC(C)C(=O)NC2CCCCC2C)cc(Cl)c1OC (stereo not given)	5	-31	4.1	-0.3	6	0.8	2	-6
47	Cc1cccc(S(=O)(=O)NC2CCCCCCC2)c1	0	2.5	-0.9	0.1	7	4.5	2	11
48	O=C(c1sc2cc([N+](=O)[O-])ccc2c1Cl)N1CCCCC1	2	-8.6	-1.4	-1.7	-12	0.9	9	14
49	CCOc1ccc(CN2CCN(Cc3cc4c(cc3Cl)OCO4)CC2CCO)cc1 (stereo not given)	0	2.7	-5.2	0.1	-3	-3.3	-46	31
50	CCSc1nnc(-c2cccc(S(=O)(=O)N(C)C)c2)n1-c1cc(OC)ccc1OC	-5	3.0	-1.4	-0.5	3	0.4	-16	9
51	CCCc1nc2ccccc2c(C(=O)OC2CCOC2=O)c1CC (stereo not given)	-2	3.4	-5.5	-0.8	6	5.9	-1	4
52	CC(C)Oc1ccc(C(=O)NC(=S)N2CCOCC2)cc1	-6	2.7	5.8	0.2	4	4.5	-7	-32
53	CCOC(=O)C(C)(C)NS(=O)(=O)c1ccc(Cl)c([N+](=O)[O-])c1	-2	0.3	2.5	1.1	-1	-2.2	-6	3
54	CC(=O)c1cccc(NC(=O)CCS(=O)(=O)c2cccc3nsnc23)c1	4	5.0	5.1	0.9	11	-1.5	10	-1
55	COCCCNC(=S)NNC(=O)C1CC1c1ccc(C(C)(C)C)cc1 (stereo not given)	.	4.6	.	.	0	-1.9	-16	29
56	COc1ccc(NC(=O)C/C(C)=N/NC(=O)c2ccncc2)c([N+](=O)[O-])c1	-4	.	1.4	-0.1	1	-1.6	-1	3
